Anaer choline gr: growth inhibitors of anaerobic choline-fed gram-negatives, minimal medium, absorbance; Gram-negative bacterium anaerobic choline minimal medium; hits give low values; many inactives read as strong as hits in the columns shown; calls only; 55,000 compounds, 0.2% hits; AID 1963822, 2024;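 active = growth z-score on choline under -2 at 7 or 20 h with little or no fall on glycerol, limits in tiers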;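 also: stock transfer was 300 nL into about 50 µL; the organism is E. coli; final concentration not given here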
Anaer choline gr early: also measured in Anaer choline gr; calls as there; z-score; measured here: choline growth z-score, timepoint 1;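 score of optical density at 7 h as mean of two plates; lower means less growth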
* marks the source's active call; other numbers are inactive results; i = inactive; & = joins results of further samples. These rows are one share of the data; rates above refer to the full screens.

Each structure is followed by: Anaer choline gr | Anaer choline gr early
1	CC(C)NC(=O)Nc1cccc(-c2noc(C3CC(=O)N(c4ccccc4)C3)n2)c1 (stereo unspecified)
  i | 0.68
2	COc1ccccc1N1CCN(S(=O)(=O)c2cc(C(=O)N3CCCC3)n(C)c2C)CC1
  i | 0.27
3	CCCS(=O)(=O)c1nc2ccc(NS(=O)(=O)c3ccc(F)cc3)cc2s1
  i | -0.74
4	Cc1ccc(-n2ncc(-c3cc(C(=O)N4CCCC4)c4cc(C)ccc4n3)c2C)cc1
  i | 0.13
5	O=S(=O)(c1cc(-c2noc(C3CCCC3)n2)cs1)N(Cc1cccs1)C1CCCC1
  i | 3.1
6	CC(C)Cn1c(=O)[nH]c2c(C(=O)N3CCC4(CC3)OCCO4)snc2c1=O
  i | 1.2
7	O=C(NCCC1=CCCCC1)C1CCN(c2cc(-c3cccc(F)c3)ncn2)CC1
  i | 0.77
8	CC(Oc1ccc(C(C)(C)C)cc1)c1nc(-c2ccccn2)no1 (stereo unspecified)
  i | 0.39
9	COc1cc(Nc2ncc3c(n2)CCN(S(=O)(=O)c2ccc(C(C)C)cc2)C3)cc(OC)c1
  i | 0.06
10	Cc1cc(C2CCCN2C(=O)c2cc(-c3cccs3)on2)on1 (stereo unspecified)
  i | -0.48
11	O=C(c1ccc2cccc(O)c2n1)N1CCCc2ccccc21
  i | -0.47
12	Clc1ccc2nc(-c3ccccn3)c(Nc3ccc4c(c3)OCO4)n2c1
  i | 0.28
13	Cc1sc(-c2nc(-c3ccc(F)cc3)no2)cc1S(=O)(=O)N1CCc2ccccc2C1
  i | -0.7
14	C=CCn1c(=O)c(=O)n(Cc2ccc(C(=O)NC(C)CCc3ccccc3)cc2)c2ccccc21 (stereo unspecified)
  i | -0.29
15	O=C1CCCc2cc(S(=O)(=O)NCc3ccccc3Cl)ccc2N1
  i | -0.91
16	CC(C)c1cc(C2CCCN2Cc2ccc(F)c(Br)c2)no1 (stereo unspecified)
  i | 1.5
17	COc1ccc(-c2nnc3sc(-c4cccnc4)nn23)cc1OC
  i | 0.38
18	COc1ccc(NC(=O)c2sc(N3CCCC3=O)nc2C)cc1OC
  i | -0.77
19	c1ccc(CNc2ncccc2-c2nc(-c3ccccc3)no2)cc1
  i | 0
20	Cc1ccccc1C1CCCN1S(C)(=O)=O (stereo unspecified)
  i | -1.2
21	CN1CCN(C(=O)Cn2ccc3c(=O)n(C)c(=O)n(C)c32)CC1
  i | 0.13
22	Cc1cc(Nc2ccccc2)nc(N2CCN(C(=O)Nc3ccccc3)CC2)n1
  i | -0.62
23	O=C(NC1CC(=O)N(c2ccc3c(c2)OCCO3)C1)C1CC1 (stereo unspecified)
  i | -0.32
24	Cc1ccc(N(CC(=O)NCc2ccc(Cl)cc2)S(=O)(=O)c2c(C)nn(C)c2C)cc1
  i | 0.98
25	O=C(Nc1cccc(-c2nc3ccccc3s2)c1)c1cc(=O)c2ccccc2o1
  i | 0.8
26	O=C(CN1CCCN(Cc2cccc(F)c2)S1(=O)=O)NC1CCCC1
  i | 0.34
27	CCOC(=O)c1cn(CC(=O)Nc2ccc(CC)cc2)c2cnccc2c1=O
  i | -0.39
28	COc1cc(N)c(Cl)cc1C(=O)NC1CCN(Cc2ccccc2)CC1
  i | -0.09
29	CCCC(=O)Nc1nc2ccc(CCC(=O)Nc3ccc(CC)cc3)cc2s1
  i | 2.1
30	CCCc1cc(=O)[nH]c(-n2nc(C)cc2NC(=O)c2ccc(Br)cc2)n1
  i | 1.1

Quoted at random: 5 compounds from above
Each structure is followed by: Anaer choline gr | Anaer choline gr early
23	O=C(NC1CC(=O)N(c2ccc3c(c2)OCCO3)C1)C1CC1 (stereo unspecified)
  i | -0.32
29	CCCC(=O)Nc1nc2ccc(CCC(=O)Nc3ccc(CC)cc3)cc2s1
  i | 2.1
26	O=C(CN1CCCN(Cc2cccc(F)c2)S1(=O)=O)NC1CCCC1
  i | 0.34
25	O=C(Nc1cccc(-c2nc3ccccc3s2)c1)c1cc(=O)c2ccccc2o1
  i | 0.8
27	CCOC(=O)c1cn(CC(=O)Nc2ccc(CC)cc2)c2cnccc2c1=O
  i | -0.39

Next section:
Each structure is followed by: Anaer choline gr | Anaer choline gr early
31	O=C(Cn1nc(-c2ccccc2)c2cc(Cl)ccc21)Nc1ccc(F)cc1F
  i | 0.15
32	Cc1ccc(CNc2nc(C)cc(=O)[nH]2)cc1
  i | -0.63
33	CCCNC(=O)c1nc(-c2ccc(S(=O)(=O)N3CCOCC3)cc2)no1
  i | -0.35
34	COCCn1nnc2cc(S(=O)(=O)N3CCCCC3C(=O)Nc3c(C)cccc3C)ccc21 (stereo unspecified)
  i | -0.19
35	Fc1ccc(-c2noc(CSc3ccc(-c4ccc5c(c4)OCO5)nn3)n2)cc1
  i | -0.1
36	COc1ccc(NC(=O)c2c(-c3ccccc3)c(-c3ccccc3)n[nH]c2=O)cc1
  i | 0.98
37	Nc1nc(Cl)nc2c1ncn2[C@@H]1O[C@H](CO)[C@H](O)C1O (stereo partly specified)
  i | -3.3
38	O=C(NCc1ccccc1)c1ccc(CN2C(=O)CSc3ncccc32)cc1
  i | -0.4
39	Cc1nc(-c2cc(S(=O)(=O)Nc3ccc(F)c(Cl)c3)c(C)s2)sc1C
  i | 0.56
40	CC(C)ON(CC(=O)NO)S(=O)(=O)c1ccc(-c2ccccc2)cc1
  i | -3.2
41	Cc1csc(-c2cc(S(=O)(=O)NCCCN3CCCc4ccccc43)c(C)s2)n1
  i | -0.95
42	CN(C)c1ccc(CNC(=O)C2CCN(S(=O)(=O)c3ccc4c(c3)CCCC(=O)N4)CC2)cc1
  i | 0.18
43	O=C(NCCc1csc(-c2cccs2)n1)C1CCN(C(=O)C2CC2)CC1
  i | -1.7
44	CC[C@H](NC(=O)c1c(C)c(-c2ccccc2)nc2ccccc12)c1ccccc1
  i | 0.55&0.53
45	CCCN1CCN(CCCNC(=O)Nc2ccc(C)c(C)c2)CC1
  i | 0.22
46	Cc1cccc(C)c1NC(=O)c1cnc2ccccn2c1=O
  i | -0.28
47	O=C(NCc1ccc(F)c(Cl)c1)C1CCN(c2ncnc3c2oc2ccccc23)CC1
  i | -0.03
48	CCOC(=O)c1ccccc1NC(=O)C1=Cc2ccc(C)cc2OC=C1
  i | 2
49	Cc1ccc(S(=O)(=O)c2c(C)cc(C)n(CC(=O)Nc3oncc3-c3ccccc3)c2=O)cc1C
  i | 1.2
50	Cc1nc(-c2cc(S(=O)(=O)Nc3cccnc3)c(C)s2)no1
  i | -0.35
51	CC(C)(C)Nc1ncnc2c1cnn2-c1ccc(Cl)cc1
  i | 1.5
52	CCn1ccc2cc(S(=O)(=O)N3CCCN(C(=O)Nc4ccccc4Cl)CC3)ccc21
  i | -0.81
53	O=S(=O)(c1ccccc1)N1CCN=C1N1CCN(c2ccccc2Cl)CC1
  i | 0.72
54	CN1C(=O)c2cc3ccccc3n2CC1(C)C(=O)NCC(=O)NCCN1CCOCC1 (stereo unspecified)
  i | 0.11
55	CCCc1cc(C2CCCN2Cc2sccc2C)no1 (stereo unspecified)
  i | 0.52
56	CCOC(=O)c1cc2ccsc2n1C(CC)C(=O)N1CCOCC1 (stereo unspecified)
  i | -1
57	O=C(NC1CCS(=O)(=O)C1)C1CCN(c2nc3ccccc3nc2C(F)(F)F)CC1 (stereo unspecified)
  i | -0.39
58	O=C(NCC1CCCO1)c1cccnc1Oc1cccc(NS(=O)(=O)c2ccc(Cl)cc2)c1 (stereo unspecified)
  i | -0.7
59	Cc1ccccc1CN1C(=O)c2ccccc2S(=O)c2ccc(C(=O)N3CCCCC3)cc21 (stereo unspecified)
  i | 0.13
60	CCc1ccccc1NC(=O)c1cccc(-c2noc(C)n2)c1
  i | 0.55
61	CC(=O)Nc1ccc(S(=O)(=O)N2CCC(n3cnc4cccnc43)CC2)cc1
  i | -0.62
62	CCn1cnc(S(=O)(=O)N2CCCC(C(=O)N3CCCCC3)C2)c1 (stereo unspecified)
  i | -0.43
63	Cc1ccc(Cc2nc(CCNC(=O)CC3CCCC3)n[nH]2)cc1
  i | -1.4
64	Cc1ccc(-c2c(C(F)(F)F)nn3c(NCCN(C)C)cc(C)nc23)cc1
  i | -0.22
65	O=C(NCc1ccc2c(c1)OCO2)c1ccccc1NC(=O)c1nsc2ccccc12
  i | -1.4
66	O=C(NC1CCS(=O)(=O)C1)c1nc(Nc2ccccc2)c2ccccc2n1 (stereo unspecified)
  i | 0.51
67	O=S(=O)(c1cn(Cc2noc(COc3ccc(Cl)cc3)n2)cn1)N1CCOCC1
  i | -0.17
68	O=C(Nc1ccc(F)cc1F)N1CCN(c2cnccn2)CC1
  i | -0.45
69	Cc1cccc(-c2csc(-c3nc(-c4cccnc4)no3)c2-n2cccc2)c1
  i | 0.21
70	Cc1nn(CCCC(=O)NCCN2CCN(C)CC2)c(=O)c2c(-n3cccc3)n(-c3ccccc3)nc12
  i | -0.8
71	COCCNC(=O)CSc1nnc(-c2ccoc2C)o1
  i | 0.44
72	Cc1cc(C)cc(NC(=O)Cn2ncn3c(cc4ccccc43)c2=O)c1
  i | -0.93
73	Cc1cccc2cc3c(nc12)N(C(=O)c1cccc(Br)c1)CC3
  i | 0.9
74	Cc1ccc2c(c1)-c1c(cnn1CC(=O)NC(C)c1ccccc1)CO2 (stereo unspecified)
  i | 0.44
75	CCOc1ccc(C2N=C(Nc3ccc(C)c(C)c3)Nc3nc(C)cc(=O)n32)cc1 (stereo unspecified)
  i | 0.68
76	O=c1[nH]c2cc(C(F)(F)F)ccc2n1-c1cc(C(F)(F)F)ccc1O
  i | -1.5&-0.24
77	CN(CCCNC(=O)c1cccc2c1SCCC2=O)c1ccccc1
  i | -0.17
78	COc1ccc(OCC(=O)NCCc2nc(-c3ccc(C)cc3)n[nH]2)cc1
  i | -0.2
79	O=C(NC1CCCC1)c1ccc(Nc2ncc(-c3cccc(F)c3)cn2)cc1
  i | 0.24
80	O=S(=O)(c1ccccc1)c1ccc(NCc2ccc3c(c2)OCO3)nn1
  i | 1.7

Results in sequence from above.
Entries 72–77 in Anaer choline gr early, in turn: -0.93, 0.9, 0.44, 0.68, -1.5&-0.24, -0.17
Entries 72–77 in Anaer choline gr, in turn: i, i, i, i, i, i

Further compounds follow.
Each structure is followed by: Anaer choline gr | Anaer choline gr early
81	Cc1nc(-n2nc(C)c(Cl)c2C)sc1C(=O)N1CCOCC1
  i | -1.6
82	Clc1cccc(-c2ccc(CNCc3ccc4c(c3)OCO4)o2)c1
  i | -1.6
83	CN1C(=O)c2cc(C(=O)N3CCN(C4CCCCC4)CC3)nn2CC1(C)C(=O)NC1CCCC1 (stereo unspecified)
  i | -0.03
84	COCCNC(=O)C1CCC(CNS(=O)(=O)c2ccc3c(c2)CC(C)N3C(=O)C2CC2)CC1 (stereo unspecified)
  i | -0.74
85	COc1ccc(NC(=O)c2ccc(C3Nc4ccccc4S(=O)(=O)N3)cc2)cc1Cl (stereo unspecified)
  i | -0.65
86	Cn1c(=O)[nH]c(=O)c2c(C(=O)NCCC3=CCCCC3)cc(=O)[nH]c21
  i | 0.35
87	O=C(Nc1ccc(Br)cc1F)c1cnn(-c2ccccc2)c1
  i | 0.16
88	O=C(NCc1ccc(F)cc1)c1cc(-c2cccnc2)on1
  i | -1.3
89	CNC(=O)CN1C(=O)COc2ccc(C(=O)N3CCCC3)cc21
  i | -0.47
90	O=c1[nH]cc(S(=O)(=O)N2CCOCC2)c(=O)[nH]1
  i | 0.34
91	O=C(Nc1ccc(F)cc1F)C1CC(=O)N(CCc2c[nH]c3ccc(F)cc23)C1 (stereo unspecified)
  i | -1.8
92	CCSc1nsc(NC(=O)Nc2ccc(OC)c(OC)c2)n1
  i | 0.18
93	COc1ccc(OCC(=O)Nc2cc(Cl)ccc2OCc2cc(=O)n3ccsc3n2)cc1
  i | 0.72
94	Cc1cc(N2CCCCC2)nc(Nc2ccc(NC(=O)Nc3cccc(Cl)c3)cc2)n1
  i | 0.7
95	CC1(C(=O)NC2CCCC2)COc2c(oc3ccccc23)C(=O)N1Cc1cccc(Br)c1 (stereo unspecified)
  i | 0.03
96	Cc1cccc(NC(=O)Cc2c(C)[nH]n(-c3nc(C)cs3)c2=O)c1
  i | -0.13
97	O=C(C1=C(N2CCc3ccccc32)c2ccccc2S1(=O)=O)N1CCOCC1
  i | 0.08
98	Nc1c(CC(=O)O)cccc1C(=O)c1ccccc1
  i | 0.27
99	CCc1cc(-c2csc(S(=O)(=O)Nc3ccc(C(C)C)cc3)c2)on1
  i | 0.83
100	Cc1noc(C)c1C1CCCN1S(=O)(=O)c1ccc(Br)s1 (stereo unspecified)
  i | 0.2
101	CCCCN(CC)c1ncc(C(=O)O)cc1NS(=O)(=O)c1ccc(Br)cc1
  i | -1.5
102	COc1ccc(-c2noc(CSc3nnc(-c4ccc5c(c4)OCCCO5)n3C)n2)cc1OC
  i | -0.34
103	Cc1ccc(C)c(NC(=O)N2CCN(c3cc(=O)n4nc(-c5ccccc5C)sc4n3)CC2)c1
  i | 1.1
104	CCOc1cc(S(=O)(=O)N2CCC(N3CCOCC3)CC2)c(OCC)cc1-n1cnnn1
  i | 1.1
105	CN(CC(=O)NCCC1=CCCCC1)S(=O)(=O)c1cc2c(cc1Cl)NC(=O)CO2
  i | 0.11
106	Cc1ccccc1Cc1c(C)nc2c(C(=O)NCCCN3CCOCC3)cnn2c1C
  i | -0.74
107	Cc1nnc(-c2c(S(=O)(=O)N3CCC(Cc4ccccc4)CC3)c(C)n(C)c2C)o1
  i | 1.2
108	CC1CCCC2(C1)NCCN=C2NCc1ccccc1Cl (stereo unspecified)
  i | -0.43
109	CCCCOc1ccc(NC(=O)c2cc(=O)c3cc(Cl)ccc3o2)c2cccnc12
  i | -0.28
110	CCc1cc(-c2csc(S(=O)(=O)N3CCc4ccccc4C3)c2)on1
  i | 0.38
111	CCOCCCNC(=O)C(Cc1c[nH]c2ccccc12)NC(=O)C1CCC(C)CC1 (stereo unspecified)
  i | 0.29
112	COc1cc(C2Nc3ccc(C)cc3[C@H]3OCC[C@@H]23)cc(Cl)c1OC (stereo partly specified)
  i | -0.26

Full records, looked up by structure. Screens in order: Anaer choline gr, Anaer choline gr early
Listed for `CCCCOc1ccc(NC(=O)c2cc(=O)c3cc(Cl)ccc3o2)c2cccnc12` → i, -0.28
Listed for `COc1cc(C2Nc3ccc(C)cc3[C@H]3OCC[C@@H]23)cc(Cl)c1OC` (stereo partly specified) → i, -0.26

High-throughput results from PubChem BioAssay.
